# StopGo RLuc = Primary qHTS Assay for Foot and Mouth Disease Virus Antivirals against NCGC Sytravon and CBC Compound Libraries: Renilla Luciferase Signal | Potency, µM (doses to about 57.5 µM), without a hit: at the top dose signal change, negative = less light | HEK cells with a luciferase reporter of 2A StopGo recoding | AID 1745857, 2022 | 0.32% of 120,000 active; active means well fitted falling curve with a large enough effect; inconclusive means small, poorly fitted or top-dose-only effect; inactive means no such curve, though single readings can be large or run the other way; note: nearly all actives have a fitted effect of over 55% in size; overnight with compound
# StopGo FLuc = Primary qHTS Assay for Foot and Mouth Disease Virus Antivirals against NCGC Sytravon and CBC Compound Libraries: Firefly Luciferase Signal. HEK cells with a luciferase reporter of 2A StopGo recoding. Potency, µM (highest dose often 57.5 µM), without a hit: at the highest dose signal change, negative = less light. 0.23% of 120,000 active; active = well fitted falling curve with a large enough effect; inconclusive = small, poorly fitted or top-dose-only effect; inactive = no such curve, though single readings can be large or run the other way; note: nearly all actives have a fitted effect of over 60% in size; overnight with compound
# The depositor's hits bear a star; ? = inconclusive; [ ] = dose if it differs, or a comment. % is set by controls: 0 for no effect and ±100 for the full control effect; potency is the fitted concentration of half-maximal effect.
SMILES,StopGo RLuc,StopGo FLuc
CC(C)=CC1C(C(=O)NC2CCCCC2C(F)(F)F)C1(C)C (stereo not drawn),13%,-7%
Cc1cc(C)c(NC(=O)CSc2nc3ccccc3c3nc(-c4ccccc4)nn23)c(C)c1,?,?
CCOc1ccc(OCC)c(NC(=O)c2nc3ccccc3nc2N2CCOCC2)c1,5%,2%
Cc1cc(Cl)ccc1NC(=O)CN1C(=O)CSc2ccc(S(=O)(=O)N(C)C)cc21,5%,-25%
CCOc1cccc(CC(=O)N2CCc3c([nH]c4ccccc34)C2c2ccc(OC)cc2)c1OCC (stereo not drawn),-20%,-27%
COc1ccc(-c2nc3n(n2)C(c2ccc(Cl)cc2)C2=C(CC(C)(C)CC2=O)N3)cc1 (stereo not drawn),4%,6%
CCOc1cc2[nH]c(=O)n(CCCCC(=O)N3CCN(c4ccccc4)CC3)c(=O)c2cc1OCC,-4%,-15%
Cc1cc(=O)n(CC(=O)Nc2ccc(F)cc2)c(N2CCc3ccccc3C2)n1,19%,48%[activator]
CCc1ccc2c(c1)-c1ccccc1S(=O)(=O)N2CC(=O)Nc1ccccc1C(F)(F)F,164%[activator],23%
COC(=O)c1ccc(C(=O)OC)c(NC(=O)COc2ccc(OC)cc2)c1,4%,7%
Cc1ccc(C)c(N/C(N)=N/c2nc(C)cc(C)n2)c1,4%[1.06 µM],11%
CCCCCNC(=O)C1CCC(Cn2c(=O)c3sccc3n(CC(=O)NCc3cccc(OC)c3OC)c2=O)CC1 (stereo not drawn),4%,2%
CCn1ccc2cc(S(=O)(=O)N3CCC(C(=O)NCC(C)c4ccccc4)CC3)ccc21 (stereo not drawn),?,?
CCCS(=O)(=O)NCCc1csc2nc(-c3ccc(OC)cc3)nn12,72%[activator],21%
CCOc1ccccc1CN1C(=O)c2ccccc2C1C(=O)NC1CCCCCC1 (stereo not drawn),179%[activator],3%
COc1ccc(CCNC(=O)c2cc3c(s2)-c2ccccc2OC3)c(OC)c1,39%[activator],54%[activator]
CC(=O)Nc1ccc(NC(=O)c2c[nH]c3ccc(F)cc3c2=O)cc1,-4%,6%
CC(C)NC(=O)c1ccc2c(c1)nc1n2CCN(CCO)C1,2%,28%
COc1cc(/C=C(\C#N)c2nc3ccc(C)cc3[nH]2)ccc1OC(C)=O,30%[activator],71%[activator]
CC(=O)N1CCc2cc(Br)cc(S(=O)(=O)CCC(=O)N3CCN(c4ccccc4)CC3)c21,-8%,-12%
CNc1c(NS(=O)(=O)c2ccc(C3CCCCC3)cc2)c(=O)oc2ccccc12,1%,1%
COc1cc(NC(=O)CCNS(=O)(=O)c2ccc3c(c2)CCN3C(=O)C2CC2)cc(OC)c1,8%,-4%
Cc1cc(C)cc(C(=O)NC(C)c2ccc(CC(C)C)cc2)c1 (stereo not drawn),14%,25%
COC(=O)c1c(C)oc2c1cc(NS(=O)(=O)c1ccc(C)cc1)c1ccccc12,164%[activator],5%
O=S(=O)(/N=C/c1ccco1)c1cccs1,-16%,4%
# (listing goes on)
SMILES,StopGo RLuc,StopGo FLuc
O=C(NCCNC(=O)c1cccc2cccnc12)c1cccc2cccnc12,14%,17%
CCCCc1nn2cc(-c3cccc(Br)c3)nc2s1,12%,243%[activator]
C=CCNC(=S)Nc1ccc(C)cc1Br,21%,0%
CCCCC(=O)N/N=C/c1ccc(C)cc1,5%,155%[activator]
CCCCn1c(=O)[nH]c(=O)c2c1nc(-c1ccc(-c3ccccc3)cc1)n2C,0%,18%
COCCCNC(=O)CSc1nc(-c2ccc(OC)c(OC)c2)[nH]c1-c1ccc(F)cc1,45%[activator],42%[activator]
CCC(=O)N1CCc2cc(S(=O)(=O)CCC(=O)N3CCN(c4ccc(Cl)cc4)CC3)ccc21,?,?
Cc1ccc2nc(-c3ccc(Cl)c(NC(=O)COc4ccc([N+](=O)[O-])cc4)c3)oc2c1,-11%,17%
Cn1nc(CC(=O)NCC2CCCCC2)c2ccccc2c1=O,?,?
Oc1ccc(Cl)cc1,-14%,-6%[11.5 µM]
Cc1ccc(CNC(=O)CCCn2c(=O)c3ccccc3n(CC(=O)Nc3ccc(C)c(C)c3)c2=O)cc1,-2%,-11%
COc1ccc2c(c1)cc1c(=O)n(CC(=O)NCc3ccco3)nc(C)n12,-10%,-16%
Cc1ccc(S(=O)(=O)N2CCOCC2)cc1C(=O)Nc1ccccc1C(=O)O,69%[activator],52%[activator]
O=C(Nc1ccc(Cl)cc1)c1nccnc1-c1nc2ccccc2s1,-2%,10%
CCN(CC(=O)Nc1ccccc1C(F)(F)F)C(=O)c1nn(CC(C)C)c(=O)c2ccccc12,16%,-1%
CCNc1nc(Oc2ccc(C(=O)OC)cc2)nc(SC)n1,19%,7%
CCN(CC)CCCNC(=O)CN1C(=O)CCn2nc(-c3cn(C)c4ccccc34)cc21,-19%,-18%
Cc1ccccc1NC(=O)CSc1nc(-c2cccs2)nc2cc(=O)[nH]n12,-3%,-12%
COc1ccc(-c2cc(C(F)(F)F)nc(NCCc3ccccc3)n2)cc1OC,-4%,-8%
COc1ccc(NS(=O)(=O)c2ccc3c(c2)CCN3C(=O)C2CC2)cc1OC,-7%,?
COc1ccc(Cn2c(C(=O)O)c(CNCc3ccc(C)o3)c3ccc(OC)cc32)cc1,33%[activator],-30%
NC(=O)COc1c(Cl)cc(Cl)cc1Cl,4%,0%
CN1C(=O)C(Cc2nc3ccccc3c(=O)n2CCCO)c2ccccc21 (stereo not drawn),-6%,-10%
N#C/C(=C\c1ccc(OCc2ccccc2)cc1)c1ccccc1,20%,122%[activator]
O=C(CCCSc1ccccc1)NCC1CCCO1 (stereo not drawn),25%,0%
# Carrying on.
SMILES,StopGo RLuc,StopGo FLuc
O=C(C1CCN(c2ncnc3nc[nH]c23)CC1)N1CCCCCC1,-4%,3%
CCc1ccc(NC(=O)c2sc(-n3nc(C)c(CCC(C)C)c3C)nc2C)cc1,-12%,-7%
N#C/C(=C/c1ccc(OC(F)F)cc1)C(=O)N(C1CCCCC1)C1CCCCC1,-2%,6%
CN/C(=C\[N+](=O)[O-])NCCSCc1ccc(CN(C)C)o1,-9%,-9%[11.5 µM]
O=C(Nc1cc(-c2ccccc2F)nn1-c1ccccc1)c1ccccc1Br,98%[activator],55%[activator]
Cn1cnc2c1c(=O)n(CCCSCc1ccc(Cl)cc1Cl)c(=O)n2C,12%,9%
COCCn1c(CNC(=O)c2cccc(C)c2)nc2cccnc21,-8%,-9%
Cc1cccc(-c2nnc(SCC(=O)N3CCCc4ccccc43)o2)c1,-7%,4%
CCOC(=O)CC(NC(=O)Cn1nnc(-c2ccc(Cl)cc2)n1)c1ccc(OC)cc1 (stereo not drawn),-13%,-6%
CC(=O)Nc1ccc(NS(=O)(=O)c2ccccc2C#N)cc1Cl,12%,17%
COc1ccc(NC(=O)CSC2=Nc3ccccc3C3=NC(CCC(=O)NCCc4ccccc4)C(=O)N23)c(OC)c1 (stereo not drawn),-20%,0%
O=C(NC1CCCCC1)c1ccc(Cn2c(SCc3ccccc3)nc3cccnc32)cc1,-12%,-5%
O=C(CCc1ncc(-c2ccc(F)cc2F)o1)NC1=NCCS1,6%,76%[activator]
O=C(O)C(c1c[nH]c2cc(Br)ccc12)N1CCN(Cc2ccc(Cl)cc2Cl)CC1 (stereo not drawn),-22%,-15%
Cc1ccc(NC(=O)CSc2nnc3ccc4ccccc4n23)cc1,-3%,-6%
CC(=O)c1cc(-c2ccc(F)cc2)n(CC(=O)NC2CCC(C)CC2)c1C (stereo not drawn),94%[activator],123%[activator]
Cc1ccccc1CNC(=O)c1ccc2c(c1)c(C)c(C)n2C,0%,-7%
CCc1cccc(N(C)C(N)=Nc2cccc3ccccc23)c1,-18%,-22%
CCc1nnc(SCC(=O)N(C)c2ccccc2)c2cc3sccc3n12,-9%,-10%
O=C(NCCc1ccccc1)c1ccccc1NC(=O)C1CC1,18%,155%[activator]
CN(Cc1cccc2ccccc12)C(=O)Cc1cccc2cccnc12,32%[activator],-18%
CNC(=O)CCNC(=O)Cn1c(-c2ccccc2)cc2ccccc21,4%,-1%
Cc1ccc2c(c1)cc(C(=O)NCc1ccccc1C)n2C,95%[activator],50%[activator]
Cc1cccc(-c2nc3ccccc3n3c(-c4ccccc4)c4c(=O)n(C)c(=O)n(C)c4c23)c1,-6%,13%
CCCn1ccc2c(OCC(=O)Nc3ccc(OC)c(OC)c3)cccc2c1=O,?,0%

# Another view of part of the listing above:
# Order of values – StopGo RLuc, StopGo FLuc
O=C(C1CCN(c2ncnc3nc[nH]c23)CC1)N1CCCCCC1
 : -4%, 3%
CCc1ccc(NC(=O)c2sc(-n3nc(C)c(CCC(C)C)c3C)nc2C)cc1
 : -12%, -7%
N#C/C(=C/c1ccc(OC(F)F)cc1)C(=O)N(C1CCCCC1)C1CCCCC1
 : -2%, 6%
CN/C(=C\[N+](=O)[O-])NCCSCc1ccc(CN(C)C)o1
 : -9%, -9%[11.5 µM]
O=C(Nc1cc(-c2ccccc2F)nn1-c1ccccc1)c1ccccc1Br
 : 98%[activator], 55%[activator]
Cn1cnc2c1c(=O)n(CCCSCc1ccc(Cl)cc1Cl)c(=O)n2C
 : 12%, 9%
COCCn1c(CNC(=O)c2cccc(C)c2)nc2cccnc21
 : -8%, -9%
Cc1cccc(-c2nnc(SCC(=O)N3CCCc4ccccc43)o2)c1
 : -7%, 4%
CCOC(=O)CC(NC(=O)Cn1nnc(-c2ccc(Cl)cc2)n1)c1ccc(OC)cc1 (stereo not drawn)
 : -13%, -6%
CC(=O)Nc1ccc(NS(=O)(=O)c2ccccc2C#N)cc1Cl
 : 12%, 17%
COc1ccc(NC(=O)CSC2=Nc3ccccc3C3=NC(CCC(=O)NCCc4ccccc4)C(=O)N23)c(OC)c1 (stereo not drawn)
 : -20%, 0%
O=C(NC1CCCCC1)c1ccc(Cn2c(SCc3ccccc3)nc3cccnc32)cc1
 : -12%, -5%
O=C(CCc1ncc(-c2ccc(F)cc2F)o1)NC1=NCCS1
 : 6%, 76%[activator]
O=C(O)C(c1c[nH]c2cc(Br)ccc12)N1CCN(Cc2ccc(Cl)cc2Cl)CC1 (stereo not drawn)
 : -22%, -15%

# The list continues:
SMILES,StopGo RLuc,StopGo FLuc
NC(=O)c1ccsc1NC(=O)COC(=O)c1ccc(Cl)cc1F,-15%,-1%
O=C(Nc1ccc(F)cc1F)c1cc(-c2ccccc2O)no1,-8%,42%[activator]
COCCn1nc(C(=O)NCC(c2ccccc2Cl)N2CCCC2)ccc1=O (stereo not drawn),-8%,7%
O=C(NC(Nc1ccc(Cl)cc1)C(=O)c1ccccc1)c1ccccc1 (stereo not drawn),84%[activator],43%[activator]
Cc1cc(-c2ccc(C)c(S(=O)(=O)Nc3ccccn3)c2)on1,117%[activator],-8%
CC(C)(C)c1ccc(-c2nc(C#N)c(NCCN3CCOCC3)o2)cc1,-20%,2%
O=C(NNC(=S)Nc1ccc(F)cc1)c1ccccc1,0%,168%[activator]
C=CCNC(=O)NC(=O)Cn1cnc2c1c(=O)n(C)c(=O)n2C,-2%,7%
O=C(CSc1nc(-c2ccccc2)cs1)C12CC3CC(CC(C3)C1)C2,15%,93%[activator]
COC(=O)C1CN(Cc2ccc(F)cc2)CCS(=O)(=O)N1Cc1ccc(C(F)(F)F)cc1 (stereo not drawn),1%,0%
Cc1cccc(-c2nc(C#N)c(N3CCN(Cc4ccccc4)CC3)o2)c1,23%,84%[activator]
COc1ccc(C(=O)Oc2cccc(C)c2C)cc1,-5%,-1%
O=S1CCNc2ccccc21 (stereo not drawn),-2%,25%
COc1cc(Br)c(OC)c(C(=O)O)c1,-4%,-1%
CCCCCN1CCN(c2nc3c(c(=O)[nH]c(=O)n3C)n2Cc2ccccc2C)CC1,-13%,0%
Cc1cc(NC(=S)NCCc2ccccc2)ccc1I,392%[activator],0%
Cc1ccc(S(=O)(=O)N2CCN(Cn3nc(C)c4ccccc4c3=O)CC2)c(C)c1,1%,5%
Cc1ccc2c(c1)N(CC(=O)NCc1ccccc1Br)C(=O)c1cccnc1O2,11%,-1%
CC(Nc1ccc([N+](=O)[O-])cn1)c1ccc(Cl)c(Cl)c1 (stereo not drawn),-2%,0%
CCc1ccc(NC(=O)c2nn(-c3ccc(OC)cc3)c(=O)c3c2c2ccccc2n3C)cc1,3%,-7%
COc1ccc(C(=O)c2cn(CC(=O)Nc3ccc4c(c3)OCO4)c3ccc(OC)cc3c2=O)cc1,28%,10%
CCCCCCCCOc1ccc(OC(=O)/C=C/c2ccc(OC)cc2)cc1,5%,0%
Cc1ccc(OCc2nc(-c3ccc(C(=O)NCc4ccc(OC(C)C)cc4)cc3)oc2C)cc1,-8%,-17%
CCC(C)NC(=O)N(C)C1CCN(c2ccc(Cl)cc2)CC1 (stereo not drawn),13µM*,?
CCCCn1nc(C(=O)N2CCCC2c2cccs2)c2ccccc2c1=O (stereo not drawn),33%[activator],0%

# Retrieved by structure from the list above (two):
SMILES,StopGo RLuc,StopGo FLuc
COc1cc(Br)c(OC)c(C(=O)O)c1,-4%,-1%
CCCCCN1CCN(c2nc3c(c(=O)[nH]c(=O)n3C)n2Cc2ccccc2C)CC1,-13%,0%

# Next part.
SMILES,StopGo RLuc,StopGo FLuc
Cc1ccc(/C=C/C(=O)NC2CCc3ccccc32)o1 (stereo not drawn),0%,5%
Cc1cn2c(/C=N/O)c(C)nc2s1,-10%[1.06 µM],1%
CCCCNc1c(C(=O)OCC)c(C)nc2c1cnn2CC,-5%,-3%[11.5 µM]
CCOC(=O)c1c(-c2ccc(OC)c(OC)c2)csc1NC(=O)C1CCCCC1,20%,4%
O=C(CCN1CCN(c2cnccn2)CC1)Nc1ccc(F)c(F)c1,-8%,-8%
CCCn1cc(S(=O)(=O)c2ccccc2)c(=O)c2cc(F)c(N3CCCC(C)C3)cc21 (stereo not drawn),-6%,-15%

# Screening results deposited in PubChem by National Center for Advancing Translational Sciences (NCATS).

# Not a hit list; 0.55% or so of the library scored in one or more.
